Bioassay records as filed in PubChem.
MT1-MMP reporter: inhibitors of MT1-MMP promoter transcription, cell-based, luciferase reporter, luminescence (AID 618); MT1-MMP promoter luciferase reporter cells, luminescence; calls from a first round at 10 µM; hits with a dose series show EC50 in µM; actives 0.62% (n = 87,000);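 active = over half of the reporter light lost at 10 µM or EC50 under 50 µM; inactive = the rest and hits that failed the dose series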;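 also: actives suppress MT1-MMP promoter-driven transcription so potencies describe inhibitors; HT1080 fibrosarcoma cells; overnight exposure; toxic or luciferase-blocking compounds were not removed from the actives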
WNV NS2B-NS3 inh: blocks West Nile virus NS2B-NS3 protease activity; WNV NS2B-NS3 protease, fluorogenic substrate Ex360/Em465; hits give low values; z-score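 (tested at a level between 10 and 100 µM)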; P06935; actives 0.18% (n = 65,000);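 active = z-score at -3 or under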;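 also: score is relative to mean and spread of the compound wells of a plate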
Target sequence (P06935 1371-1501 limits assumed): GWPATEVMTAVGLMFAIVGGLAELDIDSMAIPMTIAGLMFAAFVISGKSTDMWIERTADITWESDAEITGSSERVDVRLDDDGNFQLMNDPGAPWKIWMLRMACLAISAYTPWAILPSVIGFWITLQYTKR
Target sequence (P06935 1502-1679 limits assumed): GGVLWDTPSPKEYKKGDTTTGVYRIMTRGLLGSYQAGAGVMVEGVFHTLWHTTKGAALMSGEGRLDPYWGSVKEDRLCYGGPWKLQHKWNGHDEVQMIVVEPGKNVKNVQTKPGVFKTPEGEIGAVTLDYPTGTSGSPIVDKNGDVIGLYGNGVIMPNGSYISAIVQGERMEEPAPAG
Hsc70 ATP site: Hsc70 inhibitors, probe displacement, primary screen, biochemical, fluorescence polarization (AID 568); Hsc70 fluorescence polarization, probe displacement; higher % means a stronger effect; strong numbers were not always called active; displacement, % at 20 µM, or IC50 in µM where a hit was titrated; 83,000 tested, under 10 active;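 active = displacement above 50% without optical interference and an IC50 on retest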;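 also: ATPase domain with a fluorescein-tagged ATP probe; 0% = vehicle and 100% = excess ADP; read after one hour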
The depositor's hits bear a star; i = inactive; x = not tested or not shown.

Sequence of screens: MT1-MMP reporter	WNV NS2B-NS3 inh	Hsc70 ATP site
O=C(OCc1nnc(-c2ccccc2)o1)c1ccc2c(c1)OCO2
    i	2.44	6.6%
COc1ccc(CC(CC(=O)O)C(=O)Nc2ccccc2)cc1 (stereo not given)
    i	-0.49	-0.5%
O=S(=O)(c1ccc2oc3ccccc3c2c1)N1CCCC1
    i	x	-1.4%
C(=N\n1cnnc1SCc1ccccc1)/c1ccco1
    i	1.18	2.9%
CN(c1ccc(C(=O)NCc2ccc3c(c2)OCO3)cc1)S(C)(=O)=O
    i	-0.5	7.0%
Cn1c(CN2CCOCC2)c(C#N)c2ccccc21
    i	1.09	-4.9%
O=C(CSc1oc(-c2ccccc2)nc1S(=O)(=O)c1ccc(F)cc1)NCC1CCCO1 (stereo not given)
    i	x	-2.6%
C(=C\CSc1ncn[nH]1)/CSc1ncn[nH]1
    i	1.56	0.2%
COc1cccc(C2=NOC(C(=O)N3CCN(C(=O)c4ccco4)CC3)C2)c1 (stereo not given)
    i	1.45	-3.8%
Cc1ccc(NC(=O)COC(=O)C2=COCCO2)cc1
    i	0.23	6.7%
O=C(CN1CCOCC1)Nc1ccc(NC(=O)CN2CCOCC2)c(Cl)c1
    i	-0.65	1.9%
COc1cc2[nH]c(=S)nc(NCC3CCCO3)c2cc1OC (stereo not given)
    i	-0.38	8.7%
CCOC(=O)c1sc(NC(=O)CSc2n[nH]c(-c3ccc(Cl)cc3Cl)n2)c(C#N)c1C
    i	x	-7.3%
O=C(CC1Nc2ccccc2NC1=O)NCc1cccnc1 (stereo not given)
    i	0.47	-2.0%
CCS(=O)(=O)N1CCCC(C(=O)NCCN2CCC(Cc3ccccc3)CC2)C1 (stereo not given)
    i	0.13	0.5%
CCOC(=O)CSc1nnc(-c2ccco2)n1-c1ccc(C)cc1
    i	-1.46	-4.6%
CSc1nnc(-c2ccccc2Cl)n1N
    i	-0.33	-1.3%
O=C(CSC1=NCCS1)N1CCc2ccccc21
    i	0.59	0.7%
CC1(C)CC2(CC(C)(C(=O)CSc3nc4ccccc4s3)OC2=O)C(=O)O1 (stereo not given)
    i	x	1.6%
CCCCN(CC)C(=O)CSc1cc(=O)n(C)c2ccccc12
    i	0.38	-1.5%

Retrieved by compound from the list above (2):
Sequence of screens: MT1-MMP reporter	WNV NS2B-NS3 inh	Hsc70 ATP site
CCS(=O)(=O)N1CCCC(C(=O)NCCN2CCC(Cc3ccccc3)CC2)C1 (stereo not given)
    i	0.13	0.5%
C(=C\CSc1ncn[nH]1)/CSc1ncn[nH]1
    i	1.56	0.2%

Continued:
Sequence of screens: MT1-MMP reporter	WNV NS2B-NS3 inh	Hsc70 ATP site
CC(Cn1cnc2ccccc21)C(=O)O (stereo not given)
    i	x	1.3%
Cc1ccccc1-n1nc2c(c1NC(=O)c1cc3ccccc3oc1=O)CS(=O)(=O)C2
    i	-1.02	0.9%
CCOc1ccccc1N1CCN(S(=O)(=O)c2ccc(F)c(F)c2)CC1
    i	-0.41	-1.9%
Cc1cccc2c1N(CC(=O)OC(C)C)C(=O)C2=O
    i	0.83	1.9%
COCCn1c(SCc2ccc(C(=O)OC)o2)nc2ccccc2c1=O
    i	1.09	0.2%
COC(=O)c1ccc(OCC2c3cc(OC)c(OC)cc3CCN2C(=O)C2CC2)cc1 (stereo not given)
    i	-0.16	-1.2%
N#CC1=C2C=CC=CN2CC1=O
    i	-0.07	0.7%
Cc1ccc(C)c(C(=O)CSc2nnnn2C(C)C)c1
    i	x	0.5%
Cc1ccc(S(=O)(=O)NCC(C)NS(=O)(=O)c2ccc(C)cc2)cc1 (stereo not given)
    i	0.77	-5.0%
CS(=O)(=O)N1CCN(c2nc3ccccc3s2)CC1
    i	-0.03	3.1%
COc1cc(NS(=O)(=O)c2ccc(C)cc2C)cc(OC)c1OC
    i	-0.32	-2.8%
CCOC(=O)Cc1c(C)nc2c(-c3ccc(OC)cc3)c(C)nn2c1C
    i	x	5.5%
Cc1ccc(N2C(=O)CC(n3nc(C)cc3C)C2=O)cc1 (stereo not given)
    i	x	-0.4%
O=C(NC1=NCCS1)c1cc(-c2ccccc2)nn1-c1ccccc1
    i	-0.77	1.7%
Cc1ccc(CN2C(=O)CCC2C(=O)NC2CC2)cc1 (stereo not given)
    i	0.27	-7.4%
O=C(Nc1ccccc1O)c1cc(S(=O)(=O)N2CCOCC2)ccc1Cl
    i	-0.72	-1.9%
COc1ccc(-n2c(O)c(/C=N/n3cnnc3)c3ccccc3c2=O)cc1
    i	0.95	10.2%
CC1(C)CC(=O)C2=C(C1)Nc1cc3c(cc1C2c1ccc(F)cc1)OCO3 (stereo not given)
    i	x	1.7%
CCN(C(=O)c1ccccc1Cl)c1ccccc1
    i	-0.38	4.2%
CCCCn1nnnc1SCC(=O)Nc1ccc2c(c1)OCCO2
    i	-0.77	-3.9%
c1ccc(CNCCN2CCNCC2)nc1
    i	-0.38	-8.3%
COCCSc1ccccc1C(=O)N1CCCC1
    i	-0.22	-1.2%
Cc1c(Cl)cccc1NC(=O)CN1C(=O)CSc2ncccc21
    i	-0.62	-2.9%
CN(Cc1nc2ccccc2c(=O)[nH]1)Cc1cc(=O)oc2ccc3ccccc3c12
    i	x	-0.2%
CCOC(=O)/C=C1\SCC(=O)N1Cc1ccc(Br)cc1
    i	0.81	-6.6%
O=C(NCCCN1CCN(c2cccc(Cl)c2)CC1)C1CCC(=O)N1Cc1ccccc1Cl (stereo not given)
    i	-1.05	1.9%
CCN1C(=O)N(c2cccc3ccccc23)C(C)=CC1(C)C
    i	x	-1.2%
COc1ccccc1-n1c(SCC(=O)N2CCOCC2)nc(O)c(Cc2ccccc2)c1=O
    i	-8.64*	4.9%
CSc1nc2ccccc2n1CC(=O)Nc1c(C)n(C)n(-c2ccccc2)c1=O
    i	-1.22	-8.8%
Cc1onc(-c2ccccc2)c1C(=O)Nc1nc(-c2ccc(F)c(F)c2)cs1
    i	-0.77	1.8%
CCOc1ncccc1C(=O)OCc1ccc(C(=O)OC)o1
    i	0.16	-2.5%
CCCc1cc(=O)[nH]c(Nc2ccc(O)cc2)n1
    i	x	1.6%
CCOC(=O)C(C(C)=O)c1c(Br)c(O)c(O)c2c(C(=O)c3ccc(C)cc3)coc12 (stereo not given)
    i	0.16	1.9%
Cc1ccc(CNC(=O)Cn2ccc3ccccc3c2=O)o1
    i	0.2	5.9%
Cc1nc2sc3c(c2c2nc(-c4ccco4)nn12)CCCC3
    i	0.21	-8.2%
O=C(NC1CCCC1)C1CCCN(S(=O)(=O)c2ccc(-n3cnnn3)cc2)C1 (stereo not given)
    i	0.83	-0.9%
Nn1c(SCC(=O)Nc2ccc(Oc3ccccc3)cc2)nnc1C1CC1
    i	-0.63	-8.7%
NC(=O)c1cccc2c(=O)oc3ccccc3c12
    i	-1.45	-5.5%
Cc1ccc(-c2nnn(CCC(=O)NC(C)(C)C)n2)cc1
    i	x	-1.5%
CSc1nc(-c2ccccc2)[nH]c(=S)c1C(C)=O
    i	x	4.9%
Cc1cc(NC(=O)c2cc(S(=O)(=O)N3CCCCC3)ccc2C)n(-c2ccccn2)n1
    i	0.85	4.3%
COc1ccc(CN(C#N)c2nc(SC)nc(N(C)C)n2)cc1
    i	0.08	-4.6%
CCOC(=O)N1CCC(N2Cc3cccc(C(=O)N4CCN(C5CCCCC5)CC4)c3C2=O)CC1
    i	0.61	6.3%
Cc1n[nH]c(=S)n(/N=C/c2ccccn2)c1=O
    i	-0.76	0.8%
CCOC(=O)c1ccc(N=c2sc(C(=O)OC)cc(=O)n2Cc2ccco2)cc1
    i	0.15	-6.1%
COc1ccc(N(C(=O)Cn2nnc3ccccc32)C(C(=O)NCc2ccco2)c2ccc(C)o2)cc1 (stereo not given)
    i	1.02	1.1%
Cn1c(C(=O)NCc2cccs2)cc2c(=O)n(C)c3ccccc3c21
    i	-0.32	-7.7%
COc1ccccc1NC(=O)N1CCC(c2nnc(SCC(N)=O)n2C)CC1
    i	x	3.1%
CCOc1ccc(Cc2nnc(N)s2)cc1OCC
    i	-0.52	-1.9%
COc1ccc(-n2cnnc2SCc2ncc(-c3ccccc3)o2)cc1
    i	-0.45	4.1%
CCCS(=O)(=O)N1CCC(C(=O)NCCCN(CC)c2cccc(C)c2)CC1
    i	0.83	-8.7%
O=C(O)CSc1ccccc1C(=O)O
    i	x	1.5%
C=CCNC(=O)CNS(=O)(=O)c1ccc(F)cc1
    i	0.03	-2.1%
Clc1ccc2c(c1)c1ccccc1n2CN1CCOCC1
    i	1.15	1.2%
CC1CCN(c2nc3nonc3nc2N2CCC(C)CC2)CC1
    i	x	2.0%
CCOC(=O)Cc1csc(NC(=O)COc2ccc(N(C)S(=O)(=O)c3ccc(C)cc3)cc2)n1
    i	x	-0.2%
FC(F)(F)c1ccc(CN2CCCCCC2)cc1
    i	x	1.7%
N#Cc1c(N)nc(SC2CCCCC2=O)c(C#N)c1-c1ccco1 (stereo not given)
    i	0.75	-1.5%
CCN(Cc1ccccc1)C(=O)c1ccc(CNS(=O)(=O)c2ccc(C)cc2)cc1
    i	x	3.4%
COC(=O)c1cc(S(=O)(=O)NC2CCN(Cc3ccccc3)CC2)cn1C
    i	0.47	-0.5%

The last 4 entries of the part before come first, to join the parts:
Sequence of screens: MT1-MMP reporter	WNV NS2B-NS3 inh	Hsc70 ATP site
FC(F)(F)c1ccc(CN2CCCCCC2)cc1
    i	x	1.7%
N#Cc1c(N)nc(SC2CCCCC2=O)c(C#N)c1-c1ccco1 (stereo not given)
    i	0.75	-1.5%
CCN(Cc1ccccc1)C(=O)c1ccc(CNS(=O)(=O)c2ccc(C)cc2)cc1
    i	x	3.4%
COC(=O)c1cc(S(=O)(=O)NC2CCN(Cc3ccccc3)CC2)cn1C
    i	0.47	-0.5%
COc1ccccc1-c1nnc(SCc2nc3ccccc3s2)n1C
    i	x	-1.3%
Cc1ccc(C(=O)OCc2cc3ccccc3[nH]c2=O)cc1
    i	0.53	1.2%
CCOC(=O)c1c(C)[nH]c(C(=O)COC(=O)C2CC(=O)N(Cc3ccccc3)C2)c1C (stereo not given)
    i	-0.73	3.4%
CC(C)[C@H](NC(=O)c1ccco1)C(=O)OCC(=O)N1CCc2ccccc21
    i	x	9.0%
Nc1nc(CSCCO)nc(Nc2ccccc2)n1
    i	x	-6.9%
O=C(CCc1nc(-c2ccc(Cl)cc2)no1)OCc1ccc(Br)cc1
    i	0.28	-2.2%
CC1CCCCC1NC1=NCCS1 (stereo not given)
    i	x	-5.1%
N/C(=N\c1nc2ccccc2o1)NC(=O)c1ccccc1NC(=O)c1ccccc1
    i	0.52	-3.1%
CCOCCCNC(=O)C1CCCN(S(=O)(=O)CC)C1 (stereo not given)
    i	-0.79	-8.9%
CO/N=C\C(=N\Nc1ccc(OC)cc1)C(=O)c1ccccc1
    i	x	2.7%
CC(C)Sc1nc(-c2cccs2)nc2c1c(=O)n(C)c(=O)n2C
    i	0.27	-1.3%
CCOC(=O)C1CCN(C(=O)Cc2c(C(=O)O)n(C)c3ccccc23)CC1
    i	0.00598	-0.3%
COc1ccc2[nH]c(=O)c(CN(Cc3nnnn3CCc3ccccc3)CC3CCCO3)cc2c1 (stereo not given)
    i	-1.02	0.6%
CC(=O)Nc1ccc(S(=O)(=O)NC2=C(N3CCN(Cc4ccccc4)CC3)C(=O)c3ccccc3C2=O)cc1
    i	x	1.7%
O=S(=O)(Nc1ccccn1)c1ccc(C2CCCCC2)cc1
    i	0.64	-3.0%
COCCCNC(=O)c1cn(C)c(=O)c2cc(OC)c(OC)cc12
    i	-0.58	1.2%
O=C(CSc1nnc(Cn2nnc3ccccc32)o1)Nc1ccc(Cl)cc1
    i	x	2.0%
CC(C)CC(=O)Nc1cccc(C(=O)Nc2ccccc2C(=O)O)c1
    i	x	-0.6%
CCOC(=O)C1=C(C)NC(=S)N(C(C)=O)C1c1ccccc1 (stereo not given)
    i	x	4.6%
CCCCn1c(N)c(Sc2ccc(Cl)cc2)c(=O)[nH]c1=O
    i	x	5.4%
CC(C)C1Cc2c(sc3[nH]c(=S)n(Cc4ccccc4)c(=O)c23)CO1 (stereo not given)
    i	x	0.6%
CN(c1ccccc1C(=O)Nc1ccc2c(c1)OCCO2)S(C)(=O)=O
    i	-0.44	4.2%
CCCn1cc2c(c1-c1cccc(C)c1)c(=O)n(C)c(=O)n2C
    i	-0.62	-3.0%
CCOc1cccc(C(=O)NC2CCCCC2)c1
    i	0.35	5.4%
CC(C)NC(=O)c1cnn2c1NC(c1cccs1)CC2C(F)(F)F (stereo not given)
    i	x	-5.0%
CCP(=O)(CC)c1cccc(N)c1
    i	-0.09	-8.2%
CCOC(=O)c1c(N=CN(C)C)c(C#N)n2c1CCC2
    i	-1.09	-2.2%
COC(=O)C1C(O)=C(C=NCc2ccccc2)C(=O)CC1(C)C (stereo not given)
    i	x	1.7%
